Compound activity: PubChem, National Center for Advancing Translational Sciences (NCATS)
NS1 inh = influenza NS1 inhibition; Potency, µM (highest dose often 46.1 µM), without a hit: at the highest dose activity, positive = more growth; S. cerevisiae slowed by influenza A NS1, growth recovery by OD600; actives 0.4% (n = 270,000); also: actives are rising curves; nearly all actives have a fitted effect of over 50% in size
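Read-out: OD600 growth recovery of NS1-expressing budding yeast. Cells grown overnight at 30C in -URA glucose medium, washed, resuspended and diluted 1:100 in 2% galactose assay medium, pH 6.0. Same strain lacking NS1 served as positive control.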
SARS PLP yeast = blocks SARS-CoV papain-like protease in a yeast assay. actives 0.19% (n = 330,000). AID 485353. Potency, µM (titrated, usually from 32.9 µM), for inactives: top-dose activity, positive = growth rescue. S. cerevisiae expressing SARS-CoV PLpro, growth rescue; control for the full effect not named in the record; also: 0% is about no effect; nearly all actives have a fitted effect of over 55% in size; growth read by luminescence after 48 h
2A StopGo = FMDV 2A StopGo reporter, luciferase signal; Potency, µM (doses to about 57.9 µM), for inactives: top-dose signal change, negative = less light; AID 1159524; human cells with a luciferase reporter of 2A StopGo recoding; control for the full effect not named in the record; actives 1.2% (n = 410,000); active = well fitted falling curve with a large enough effect; inconclusive = small, poorly fitted or top-dose-only effect; inactive = no such curve, though single readings can be large or run the other way; tested in HEK293T cells; also: % is scaled to controls: 0 for no effect and ±100 for the full control effect; nearly all actives have a fitted effect of over 45% in size; luciferase light after 4 h
Marburg entry inh = blocks Marburg virus binding to or entry into cells; Marburg virus pseudotyped entry inhibition, cell reporter; control for the full effect not named in the record; about a third of the inactives were read at about 46 µM; Potency, µM (top dose mostly 37.8 µM), for inactives: at the top dose activity change, negative = inhibition, most hits filed as inhibitors; actives 1.8% (n = 300,000); AID 540276; active = well fitted inhibition curve with a large enough effect; inconclusive = small, poorly fitted or top-dose-only effect, or effect the other way; inactive = flat fitted curve, though single readings scatter; tested in HEK293 cells; about a fifth of its hits are not listed in these tables; also: % is scaled to controls: 0 for no effect and ±100 for the full control effect; luciferase read-out
Cruzain Triton = inhibitors of Trypanosoma cruzi cruzain with detergent; P25779; Potency, µM, for inactives: max response, negative = inhibition, actives largely listed as inhibitors; purified cruzain, Z-FR-AMC fluorescence, 0.01% Triton; actives 0.43% (n = 200,000); active = well fitted curve in the direction sought with a large enough effect; inconclusive = small, poorly fitted or top-dose-only effect, or another doubt; inactive = no such curve, though single readings can be large; an effect the other way counts as inactive or inconclusive;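 also: plate controls were neutral wells for no effect and buffer without enzyme for full effect; nearly all actives have a fitted effect of over 40% in size; top concentration of the series not given in the record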
Target sequence (P25779 123-467 limits assumed): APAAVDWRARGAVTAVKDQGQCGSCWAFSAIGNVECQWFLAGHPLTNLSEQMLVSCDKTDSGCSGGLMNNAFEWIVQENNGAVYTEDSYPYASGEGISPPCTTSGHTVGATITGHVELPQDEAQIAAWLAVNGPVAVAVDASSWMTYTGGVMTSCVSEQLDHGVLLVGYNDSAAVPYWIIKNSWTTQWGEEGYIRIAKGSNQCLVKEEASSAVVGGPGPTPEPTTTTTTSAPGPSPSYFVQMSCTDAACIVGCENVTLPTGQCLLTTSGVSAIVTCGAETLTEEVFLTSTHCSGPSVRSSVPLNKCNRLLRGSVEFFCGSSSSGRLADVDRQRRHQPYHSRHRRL
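Z-FR-AMC hydrolysis (2 uM substrate) by cruzain (1.5 nM) monitored kinetically at ex 360/em 450 nm after 15 min room-temperature compound exposure; 0.01% Triton X-100, pH 5.5, 5 mM DTT.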
Lassa entry inh = Lassa virus entry inhibition | Lassa virus pseudotype entry inhibition, cell reporter; control for the full effect not named in the record | Potency, µM (series often up to 37.9 µM), for the others: at the top dose activity change, negative = inhibition, usual class: inhibitors | actives 1.2% (n = 300,000) | AID 540256; active means well fitted inhibition curve with a large enough effect; inconclusive means small, poorly fitted or top-dose-only effect, or effect the other way; inactive means flat fitted curve, though single readings scatter; tested in HEK293 cells; also: % is scaled to controls: 0 for no effect and ±100 for the full control effect; nearly all actives have a fitted effect of over 50% in size; luciferase read-out
Cruzain noTriton = inhibitors of Trypanosoma cruzi cruzain without detergent | P25779 | purified cruzain, Z-FR-AMC fluorescence, no detergent | Potency, µM, inactives show max response, negative = inhibition, usual class: inhibitors | actives 2.3% (n = 200,000); active = well fitted curve in the direction sought with a large enough effect; inconclusive = small, poorly fitted or top-dose-only effect, or another doubt; inactive = no such curve, though single readings can be large; an effect the other way counts as inactive or inconclusive;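 also: plate controls were enzyme without inhibitor for no effect and buffer without enzyme for full effect; nearly all actives have a fitted effect of over 40% in size; top concentration of the series not given in the record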
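Purified cruzain at 1.5 nM, pre-incubated 15 min with compound at room temperature in 100 mM sodium acetate pH 5.5, 5 mM DTT, 0.00005% Triton X-100. Reaction started with 2 uM Z-FR-AMC; AMC fluorescence increase over 60 s gives rate.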
RE007 growth inh = less growth of the S. pombe RE007 Vpr strain. S. pombe RE007 Vpr strain, BacTiter-Glo ATP luminescence, 24 h; control for the full effect not named in the record. Potency, µM (doses to about 92.2 µM), for the others: at the top dose activity change, negative = less growth. actives 0.21% (n = 360,000). AID 651644; active = well fitted falling curve with a large enough effect; inconclusive = small, poorly fitted or top-dose-only effect; inactive = no such curve, though single readings can be large or run the other way;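 also: % is scaled to controls: 0 for no effect and ±100 for the full control effect; nearly all actives have a fitted effect of over 50% in size; the assay follows cell death caused by Vpr and the record does not say whether a fall means rescue or toxicity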
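Fission yeast RE007 carrying one integrated HIV-1 vpr copy, seeded at OD 0.01 in PMG+AL medium with 23 nL pinned compound. Grown 24 h at 30 degrees; viability read by BacTiter-Glo luminescence after 5 min.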
Active calls of the source: *; ? = inconclusive; · = no result given; [ ] = dose if it differs, or a comment. Unless noted, calls follow the shape of the dose curve; as a rule, active means well fitted rising curve with a large enough effect; inconclusive means small, poorly fitted or top-dose-only effect; inactive means no such curve, though single readings can be large or run the other way. Potency is read from the fitted curve at half-maximal effect. Rows are unselected, and some 4.8% of all compounds hit somewhere here.

SMILES	NS1 inh	SARS PLP yeast	2A StopGo	Marburg entry inh	Cruzain Triton	Lassa entry inh	Cruzain noTriton	RE007 growth inh
CCOc1ccc(-c2nc(CN3CCCC(C(=O)N4CCOCC4)C3)c(C)o2)cc1 (stereo not drawn)	4%	-6%	9%	-7%[46.1 µM]	·	-12%[46.1 µM]	·	-4%
CCOC(=O)Cn1cc(C#N)c2cccc(CC)c21	-2%	0%	-13%	?	·	-4%[46.1 µM]	·	-10%
Cc1ccc(N2C(SCC(=O)O)=NC(=Nc3cccc(C)c3)C23CCCC3)cc1	·	-2%	?	20%[46.1 µM]	·	18%	·	0%
O=C(NNc1cc(C(F)(F)F)ccc1Cl)c1ccc(=O)[nH]c1	-37%	-8%	-7%	2%[46.1 µM]	·	0%[46.1 µM]	·	77%
CC(C)CCNC(=O)CN(Cc1ccccc1)C(=O)CCC(=O)Nc1nccs1	7%	-5%	-9%	-6%[46.1 µM]	·	6%	·	8%
COC(=O)c1ccc(C(=O)N2CCCC(CNC(=O)c3ccccc3Cl)C2)cc1 (stereo not drawn)	2%	1%	44%[activator]	?	·	6%	·	-18%
CNc1sc(C(=O)c2ccccc2F)c(N)c1-c1nc2ccccc2s1	-5%	-2%	11%	-27%	-3.1%	-1%	?	-16%[3.69 µM]
CC(C)OC(=O)/C(=C/c1cccnc1)NC(=O)c1ccccc1	0%	5%	-10%	-6%	0.7%	0%	-8%	10%
COc1c(OC)c(O)c2c(=O)cc(-c3c(O)cccc3O)oc2c1OC	?	-1%	22%	·	·	·	·	-5%
CCOc1ccc(C(=O)NCc2ccco2)cc1OC	11%	17%	-5%	·	·	·	·	-23%
Cc1cccc2nc(Cn3c(=O)n(-c4ccccc4)c(=O)c4c5c(sc43)CCC5)cc(=O)n12	·	·	-22%	2%[46.1 µM]	-3.3%	19%[46.1 µM]	-1%	·
CC(C)CCn1cnc2c1c(=O)n(C)c(=O)n2C	-2%	-1%	-22%	-2%[46.1 µM]	0.2%	3%	-3%	9%
COc1cccc(NC(=O)COc2ccc(C(=O)N3CCN(C)CC3)cc2)c1	-4%	-3%	8%	7%[46.1 µM]	·	6%	·	-13%
COc1ccccc1C(=O)Nc1cc2c(ccc3ccccc32)oc1=O	-13%	1%	·	·	1.0%	·	-1%	·
CNC(=O)c1nc(C)c(C2(C)CC(c3ccccc3)=NO2)s1 (stereo not drawn)	-5%	1%	-9%	·	·	·	·	2%

Full records, quoted from the list. Values in the order: NS1 inh | SARS PLP yeast | 2A StopGo | Marburg entry inh | Cruzain Triton | Lassa entry inh | Cruzain noTriton | RE007 growth inh
Listed for CCOC(=O)Cn1cc(C#N)c2cccc(CC)c21 = -2% | 0% | -13% | ? | · | -4%[46.1 µM] | · | -10%
Listed for COc1c(OC)c(O)c2c(=O)cc(-c3c(O)cccc3O)oc2c1OC = ? | -1% | 22% | · | · | · | · | -5%
Listed for O=C(NNc1cc(C(F)(F)F)ccc1Cl)c1ccc(=O)[nH]c1 = -37% | -8% | -7% | 2%[46.1 µM] | · | 0%[46.1 µM] | · | 77%

More structures
SMILES	NS1 inh	SARS PLP yeast	2A StopGo	Marburg entry inh	Cruzain Triton	Lassa entry inh	Cruzain noTriton	RE007 growth inh
CCOc1cc([C@H]2[C@@H]3CCCC[C@]3(O)CCN2CC(=O)NCc2ccco2)ccc1O	-18%	0%	8%	-7%	-1.5%	-11%	-9%	-13%
COc1ccccc1C(O)P(=O)(OC1CCCCC1)OC1CCCCC1 (stereo not drawn)	-2%	-1%	60%[activator]	?	·	-10%	·	4%
Cc1ccccc1-c1ccc(Nc2ccc(C(=O)N3CCOCC3)cc2)nn1	0%	9%	30%	2%	-0.3%	29%[14.3 µM]	3%	1%
Cc1cccc(C)c1NC(=O)CSc1nnc(CCCCCNC(=O)OC(C)(C)C)o1	0%	-1%	?	14%	-0.1%	9%	30%	-5%
COC(=O)Nc1sc(C(=O)N(C)C)c(C)c1C(=O)OC	0%	2%	-18%	2%	-3.7%	16%	1%	6%
COc1ccc(-c2nc3ccccc3c(=O)n2-c2cccnc2)cc1	7%	-16%	-20%	20%	1.1%	14%	2%	17%
O=C(CCn1cccc1)Nc1ccccc1F	-12%	-10%	1%	19%	9.3%	11%	3%	-2%
Cc1cccc(OCCSc2nnc(-c3ccoc3C)n2C)c1	2%	4%	-2%	2%	-1.1%	-5%	-29%	3%
CC(NC(=O)CN1C(=O)NC2(CCCCCC2)C1=O)c1ccccc1 (stereo not drawn)	·	1%	10%	?	·	7%	·	14%
COc1cc(C2SCC(=O)N2c2c(C)n(C)n(-c3ccccc3)c2=O)ccc1O (stereo not drawn)	3%	-2%	41%[activator]	2%[46.1 µM]	·	3%	·	2%
COC(=O)c1ccc([C@@H]2Nc3c(cccc3C(F)(F)F)[C@@H]3C=CC[C@@H]32)cc1	·	·	-8%	?	-0.4%	-1%[46.1 µM]	-2%	·
COCCCN1CCN(c2nnc3n2-c2sc(Br)cc2C(c2ccccc2Cl)=NC3)CC1	-9%	8%	-17%	?	-3.3%	4%	-2%	-2%
Cc1cc(C)c2c(Cn3ccnc3)cc(=O)oc2c1	0%	2%	0%	·	·	·	·	-4%
Cc1ccc(C(=O)/C=C/Nc2ccc(S(=O)(=O)Nc3onc(C)c3C)cc2)cc1	-9%	3%	29%	?	-3.3%	-6%	6%	-9%
Cc1cc(NC(=O)CCC(=O)N(CC(=O)NC2CCCC2)c2ccc(Cl)cc2)no1	-15%	1%	1%	3%[46.1 µM]	·	-3%	·	12%
O=C(N1CCOCC1)N1CCN(c2ccccc2F)CC1	-9%	4%	-2%	·	2.6%	·	-8%	25%
CC1CCCN(C(=O)Cc2ccc(F)cc2)C1 (stereo not drawn)	-1%	-2%	27%	1%[46.1 µM]	7.3%	0%	5%	-9%
N#Cc1ccsc1NC(=O)CSc1nnnn1-c1ccc(O)cc1	7%	1%	40%[activator]	·	·	·	·	5%
CSCCc1nc(SCC(=O)Nc2nnc(C)s2)[nH]c1C	-8%	·	-13%	14%	4.4%	10%	-5%	-18%
CC(C)c1ccc(S(=O)(=O)N2CCN(C(=O)CN3C(=O)NC4(CCCCC4)C3=O)CC2)cc1	·	-2%	-15%	?	·	0%	·	-10%
Cc1cc(C)n(-c2nc3ccccc3nc2N2CCN(c3cccc(C(F)(F)F)c3)CC2)n1	·	·	-20%	0%[46.1 µM]	0.1%	0%[46.1 µM]	-1%	·
O=C(Nc1cccc(-n2cnnn2)c1)C1CCCN(Cc2cccc(C(F)(F)F)c2)C1 (stereo not drawn)	9%	-2%	?	?	·	-7%	·	1%
Cc1ccc(S(=O)(=O)NNC(=O)NC23CC4CC(CC(C4)C2)C3)cc1	3%	4%	-12%	?	-3.2%	-10%	1%	20%
O=c1c2cc([N+](=O)[O-])ccc2nc2n1CCCC2	3%	-1%	-7%	?	·	?	·	11%
COCCCN(C(=O)c1cc2c(s1)CCC2)c1c(N)n(Cc2ccccc2)c(=O)[nH]c1=O	·	1%	-10%	9%	·	7%	·	-9%
COc1nnc(-c2ccc(C)c(S(=O)(=O)N(C)C)c2)c2ccccc12	-8%	8%	?	·	·	·	·	29%
O=C(Nc1ccc(S(=O)(=O)N2CCN(Cc3ccccc3)CC2)cc1)c1cnccn1	-10%	-4%	?	?	-20%	?	-4%	7%
CCCCC1=CC2=CC(=O)C(C)(OC(=O)CC)C(=O)C2=CN1C1CCCCC1 (stereo not drawn)	-2%	1%	-20%	·	·	·	·	-12%
O=C(Cn1c(=O)n(Cc2ccco2)c(=O)c2sc3ccccc3c21)Nc1ccc(F)cc1F	·	·	-23%	-17%[46.1 µM]	-4.0%	1%[46.1 µM]	-2%	·
O=C1OC(c2cccs2)=N/C1=C/c1ccc(-c2cccc(C(=O)O)c2)o1	3%	5%	-1%	·	·	·	·	4%

Fetched by compound from above:
SMILES	NS1 inh	SARS PLP yeast	2A StopGo	Marburg entry inh	Cruzain Triton	Lassa entry inh	Cruzain noTriton	RE007 growth inh
CSCCc1nc(SCC(=O)Nc2nnc(C)s2)[nH]c1C	-8%	·	-13%	14%	4.4%	10%	-5%	-18%
O=c1c2cc([N+](=O)[O-])ccc2nc2n1CCCC2	3%	-1%	-7%	?	·	?	·	11%

The list goes on:
SMILES	NS1 inh	SARS PLP yeast	2A StopGo	Marburg entry inh	Cruzain Triton	Lassa entry inh	Cruzain noTriton	RE007 growth inh
CCC1(C)Cc2ccccc2C(Nc2c(C)n(C)n(-c3ccccc3)c2=O)=N1 (stereo not drawn)	-4%	2%	-12%	-8%	2.8%	19%	8%	12%
NS(=O)(=O)c1cccc(NC(=O)c2ccc(NS(=O)(=O)c3cccc([N+](=O)[O-])c3)cc2)c1	·	3%	10%	20%	·	9%	·	-8%
Cc1c(NC(=O)C(C)c2ccc(CC(C)C)cc2)c(=O)n(-c2ccccc2)n1C (stereo not drawn)	-1%	-5%	0%	-2%	5.1%	?	-7%	4%
O=C(NCCCN1CCCC1)c1ccc(CS(=O)(=O)c2ccc(Br)cc2)o1	1%	-2%	0%	·	0.6%	·	0%	-9%
Cc1cc(C(=O)Nc2c[nH]c(=O)[nH]c2=O)ccc1[N+](=O)[O-]	·	0%	4%	12%[46.1 µM]	·	-6%	·	-9%
COc1ccc(/C=C/C(=O)OCC(=O)N(C)c2c(N)n(Cc3ccccc3)c(=O)[nH]c2=O)cc1OC	·	7%	-28%	29%	·	10%	·	-16%
C[C@H](NC(=O)OC(C)(C)C)c1nnc(SCc2c(F)cccc2Cl)o1	·	·	-30%	1%[46.1 µM]	-2.2%	-34%[46.1 µM]	-5%	·
CCCCC(=O)Nc1ccc2c(c1)nc(CCNC(=O)c1ccco1)n2C	-3%	-1%	25%	·	·	·	·	-7%
Oc1ccc(/C=N/Nc2nc(N3CCCC3)nc(N3CCCC3)n2)cc1O	0%	-1%	-12%	?	·	?	·	-7%
CC1CC(C)C(=O)C(C(CC2CC(=O)NC(=O)C2)OC(=O)CC(=O)c2ccccc2)C1 (stereo not drawn)	·	·	-24%	?	·	?	·	-4%
